VDR inh: blocks the human vitamin D receptor. Potency, µM, without a hit: max response, negative = inhibition, usual class: inhibitors. P11473. hit rate 0.93% among 400,000. VDR-SRC2-3 peptide fluorescence polarization, 2 h. AID 504847; active = well fitted inhibition curve with a large enough effect; inconclusive = small, poorly fitted or top-dose-only effect, or another doubt; inactive = no such curve, though single readings can be large or run the other way; also: series mostly up to about 120 µM
Target sequence (P11473 whole entry, looked up): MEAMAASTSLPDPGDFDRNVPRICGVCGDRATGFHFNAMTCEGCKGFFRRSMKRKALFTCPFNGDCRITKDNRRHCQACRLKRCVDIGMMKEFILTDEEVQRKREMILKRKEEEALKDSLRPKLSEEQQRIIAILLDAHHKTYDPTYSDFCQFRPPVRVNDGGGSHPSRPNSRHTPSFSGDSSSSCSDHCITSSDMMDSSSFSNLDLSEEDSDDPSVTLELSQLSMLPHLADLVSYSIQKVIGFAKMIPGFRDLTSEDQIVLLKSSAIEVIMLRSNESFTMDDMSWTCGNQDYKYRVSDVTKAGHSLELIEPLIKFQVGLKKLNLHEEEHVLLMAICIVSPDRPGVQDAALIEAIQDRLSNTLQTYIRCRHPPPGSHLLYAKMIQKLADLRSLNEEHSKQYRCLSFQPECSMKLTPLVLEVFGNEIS
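Reagent solutions, kept cold and dark, are dispensed first; compounds are then pinned in at 23 nl, plates briefly spun, and incubated 2 h at ambient temperature. Inhibition of VDR–SRC2-3 peptide binding is read by fluorescence polarization.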
An asterisk follows results filed as active; ? = inconclusive; & = joins results of further samples. % is scaled to controls: 0 for no effect and ±100 for the full control effect; potency is read from the fitted curve at half-maximal effect.

SMILES	VDR inh
c1ccc(C2=NN(c3ccccc3)CC2)cc1	-9.6%
O=C(O)C[C@H]1c2cc(F)ccc2S(=O)(=O)N1Cc1ccccc1	0.7%
CC(C)CC(NC(=O)c1cccs1)c1nnc(SCc2ccc(Cl)c(Cl)c2)n1C (configuration not stated)	-5.8%
O=C(COc1ccc2ccccc2c1)NCCn1ccc2ccccc21	-11.1%
COc1ccc(S(=O)(=O)N2CCN(C(=O)c3cc(C4CC4)nn3-c3ccccc3)CC2)cc1OC	2.7%
CC(=O)Nc1ccc(NC(=O)C(C)OC(=O)CSc2ccc(Br)cc2C)cc1 (configuration not stated)	9.7%
Cc1ccccc1N1C(=O)c2cc(S(N)(=O)=O)c(Cl)cc2NC1C (configuration not stated)	2.3%&-17.5%&-4.2%
COC(=O)c1c(C)nn(-c2ccccc2)c1N	-20.2%
CCOC(=O)c1c(C)c(/C=N/Nc2ccccc2)n(C)c1C	6.4%
CSCCC(NS(=O)(=O)c1ccc2c(c1)oc(=O)n2C)C(=O)Nc1ccc(F)c(Cl)c1 (configuration not stated)	-7.4%
CC(CCc1ccco1)NC(=O)c1cc2c(-c3ccccc3F)nn(C)c2s1 (configuration not stated)	-20.3%
N#Cc1c(-c2ccccc2)c(-c2ccccc2)n(Cc2ccco2)c1NC(=O)c1cccs1	8.9%
N#Cc1cc(-c2ccc(Cl)cc2)cn(Cc2c(Cl)cccc2Cl)c1=O	19.6%
CC(C)c1cccc(OCCn2c(-c3ccc(Cl)cc3)nc3ccccc3c2=O)c1	-9.9%
CN(C)c1oc(-c2ccccc2Cl)nc1P(=O)(c1ccccc1)c1ccccc1	-14.9%
CCOC(=O)N1CCN(S(=O)(=O)c2ccc([N+](=O)[O-])cc2)CC1	0.1%
CC(C)[C@H](NC(=O)c1ccccc1F)C(=O)NC1CCCCCCC1	11.6%
CC1=C(C#N)CCC(=O)N1Cc1c(F)cccc1Cl	0.5%
Cc1ccc(C)c(N2CCN(C(=O)C(C)n3nc(C)c4sc5ccccc5c4c3=O)CC2)c1 (configuration not stated)	13.9%
O=C(Nc1cccc(Cl)c1)OCCOc1ccccc1	3.1%
COc1ccc(O)c(C(=O)c2cnc3onc(C)c3c2)c1	1.7%
Cc1nnc(SC(C(=O)Nc2ccc(Cl)c([N+](=O)[O-])c2)c2ccccc2)[nH]c1=O (configuration not stated)	-16.6%
O=C1C2C3C=CC([C@@H]2C(=O)N1Cc1cccnc1)C31CC1 (some centres not stated)	-6.4%
CN(C)/C=C1\SC(=S)N(c2ccc(F)cc2)C1=O	-12.7%
CCN(C(=O)CSc1nnnn1-c1cc(C)ccc1OC)C1CCS(=O)(=O)C1 (configuration not stated)	-1.9%
(list continues)
SMILES	VDR inh
COCCNC(=O)CN1C(=O)/C(=C/c2ccccc2)Oc2ccc(C(C)(C)C)cc21	-2.9%
Cc1ccc(CNC(=O)CCCc2cn(C)c3ccccc23)cc1	6.2%
CC12CCC(C(=O)NCc3ccccc3Cl)(OC1=O)C2(C)C (configuration not stated)	6.8%
CCOC(=O)c1ccc(N2C(=O)CC(N(Cc3ccc4c(c3)OCO4)C(=O)Nc3ccccc3)C2=O)cc1 (configuration not stated)	-0.7%
O=C(COc1ccc(Cl)cc1)Nc1ccc(Cc2ccncc2)cc1	-8.9%
Cc1cc(C)c(C2C3=C(Nc4c2c(C)nn4-c2ccccn2)c2ccccc2C3=O)c(C)c1 (configuration not stated)	-13.6%
Cc1ccccc1OCC(=O)Nc1ccc2c(c1)COC2=O	13.8%
CCC1(C)Cc2c(sc3nc(SC)[nH]c(=S)c23)CO1 (configuration not stated)	?
COc1cc(C2C3C(=O)N(c4ccccc4)C(=O)C3ON2c2ccccc2)ccc1O (configuration not stated)	-2.2%
COc1ccc(-c2sc3ccccc3c2C#CCCO)cc1	-19.9%
O=C(CSc1nccn1-c1cccc(Cl)c1)Nc1cccc2ccccc12	4.1%
O=c1[nH]c2cc(Br)ccc2n2cccc12	7.0%
COc1cccc(OC)c1OCc1cc(C2C3CCCC=C3C(C#N)=C(N)C2(C#N)C#N)c(C)cc1C (configuration not stated)	?
Cn1c(=O)c2c(nc(NCc3cccnc3)n2Cc2cccc(C(F)(F)F)c2)n(C)c1=O	-0.3%
CCCC(=O)NCc1nc2ccccc2n1C	3.2%
Cc1nc(C)c(CCNC(=O)c2ccc(C(F)(F)F)cc2)s1	3.5%
Cc1cc(CCNC=O)c(C)c2c1sc1ccccc12	-16.4%
CN=C1NN=C(c2cc(C)n(-c3c(C)n(C)n(-c4ccccc4)c3=O)c2C)CS1	6.9%
COc1ccc(CNCCSc2nnnn2C)c(OC)c1OC	-4.2%
CC1(C)CC(CC(=O)O)(c2ccc(F)cc2)CCO1 (configuration not stated)	1.1%
CCC(NC(=O)Cc1cccs1)c1ccccc1 (configuration not stated)	-0.8%
Cc1cccc(NC(=S)N(CCN(C)C)Cc2cccs2)c1	5.8%
CCOC(=O)c1c(N)sc(C(O)(C(F)(F)F)C(F)(F)F)c1-c1ccccc1	?
Clc1ccc(OCCCCCN2CCOCC2)cc1	-8.5%
Cc1ccc2oc(C(=O)Nc3c(C(=O)Nc4ccccc4)oc4ccccc34)cc(=O)c2c1	11.1%
Next section:
SMILES	VDR inh
COc1ccc(N(CC(=O)Nc2nccs2)S(=O)(=O)c2c(C)nn(C)c2C)cc1	-3.5%
Clc1ccc(/C=N/c2c(-c3ccc(Cl)cc3)nc3n2CCS3)cc1	-4.2%
CC(C(=O)Nc1ccc2c(c1)OCCO2)N(c1ccccc1)S(C)(=O)=O (configuration not stated)	-19.4%
CN=c1sc2c(n1C)C(=O)c1ccccc1C2=O	?
CCCNCC1COc2ccccc2O1 (configuration not stated)	25.0%
Brc1cccc(CNc2nc3ccccc3n2CCN2CCCCC2)c1	4.6%
CCOc1cccc2cc(S(=O)(=O)c3ccccc3F)c(=O)oc12	-6.7%
O=C(c1cc(-c2ccc(Cl)cc2)n(-c2cc(Cl)ccc2Cl)n1)N1CCOCC1	8.4%
Cc1nnc(SCCn2c(Br)nc3c2c(=O)n(C)c(=O)n3C)s1	-5.4%
Cc1ccc(CNC(=O)C2CCN(C(=O)N3CC(C)Oc4ccc(Cl)cc43)CC2)cc1 (configuration not stated)	-5.9%
Cc1ccccc1NC(=O)Cn1c(=O)oc2cc(Br)ccc21	5.2%
Cc1ccc(C2=NN(CC(=O)NCc3ccco3)C(=O)CC2)cc1	-2.6%
COCCN1C(=O)C(=O)/C(=C(/O)c2cccc(OC)c2)C1c1ccco1 (configuration not stated)	-8.9%
CCCNC(=O)CCc1cc(C(C)(C)C)c(O)c(C(C)(C)C)c1	-29.2%
CCCCOC(=O)C1=C(C)NC(=O)NC1c1ccccc1 (configuration not stated)	-21.5%
CCCC(C(=O)NC1CCCC1)N(CC1CCCO1)C(=O)CNS(=O)(=O)c1ccc(F)cc1 (configuration not stated)	1.5%
Cc1ccc(C)c(N2CCN(c3ccc4cc(S(=O)(=O)N5CCC(C)CC5)ccc4n3)CC2)c1	14.0%
Cc1cnc(C(=O)OCC(=O)N(C)CC(=O)Nc2ccccc2Cl)cn1	2.9%
CSc1cccc(NC(=O)C2CCN(S(=O)(=O)c3ccc4[nH]c5c(c4c3)CCCCC5)CC2)c1	19.2%
CCCc1[nH]nc2c1C(c1ccncc1)C(C#N)=C(N)O2 (configuration not stated)	15.4%
CCc1ccc(S(=O)(=O)c2nnn3c2nc(NCc2ccccc2)c2cc(Cl)ccc23)cc1	-11.5%
COc1ccc2oc(-c3cccc(NC(=O)c4cc([N+](=O)[O-])ccc4N4CCOCC4)c3)nc2c1	-12.5%
Cc1cc(NC(=O)c2c(-c3ccccc3Cl)noc2C)no1	-0.7%
CCOc1nc(NCc2ccco2)nc(Nc2ccc(OC)cc2)n1	15.4%
CC(C)CCn1c(/C=C/c2ccccc2)nc2ccccc21	8.8%
Continued.
SMILES	VDR inh
COc1ccc(OC)c(NC(=O)C23CC4CC(C2)CC(n2cnc(Br)n2)(C4)C3)c1	-0.8%
O=C(NCCc1ccc(Cl)cc1)Nc1ccc(Cl)cc1	-5.9%
O=C(Nc1ccc(N2CCN(C(=O)c3cccs3)CC2)c(Cl)c1)c1cccnc1	-9.7%
COc1ccc(-n2nc3cc(C)c(NC(=O)c4ccc(C)cc4C)cc3n2)cc1Cl	-6.8%
CCOC(=O)N1CCN(C(=O)C2CC(=O)N(c3ccccc3)C2)CC1 (configuration not stated)	6.8%
Cc1cc(C)nc(-n2ncc3c2CC(c2ccccc2)CC3=O)n1 (configuration not stated)	-3.3%
CN(C)c1ccc(C(=O)C(O)c2ccccc2)cc1 (configuration not stated)	-4.2%
NS(=O)(=O)c1cccc(NC(=O)CCc2ccc(S(=O)(=O)N3CCOCC3)cc2)c1	16.5%
CCN(CC)S(=O)(=O)c1cc([N+](=O)[O-])ccc1N=Nc1c(O)[nH]c2ccccc12	-22.3%
CC(C)(C)C1CCC(=NNS(=O)(=O)c2ccc(Br)cc2)CC1 (configuration not stated)	4.4%
CC(C)NC(=O)COC(=O)c1cc(Br)ccc1Cl	-4.5%
COc1ccc(C(=O)COC(=O)COc2cc(C)cc(C)c2)cc1	8.7%
CCOc1ccc(C(=O)CCC(=O)NC(C)C(=O)OC)cc1 (configuration not stated)	-9.8%
O=C(NCCc1ccc(F)cc1)c1cccc2c1C(=O)c1ccc(N3CCC(Cc4ccccc4)CC3)cc1S2(=O)=O	-15.0%
O=C(Nc1cccc(S(=O)(=O)NC2=NCCC2)c1)c1cc(Cl)ccc1[N+](=O)[O-]	-20.8%
COc1ccccc1C(=O)Nn1cnc2ccccc2c1=O	3.0%
COc1ccc(Nc2oc(-c3ccc(COc4ccccc4)o3)nc2C#N)cc1	8.9%
Cc1ccc(N(CC(=O)NC2CCCCC2)C(=O)CNC(=O)c2ccco2)c(C)c1	-3.7%
CN(CC(=O)NC1CC1)S(=O)(=O)c1cc(Cl)ccc1Cl	-18.5%
Cc1cc(C)c(NC(=O)Cn2c(=O)n(-c3cccc(C(F)(F)F)c3)c(=O)c3c(C)c(C)sc32)c(C)c1	1.6%
COCCCNC(=O)c1nc2ccccc2c(=O)n1NC(=O)Nc1c(Cl)cccc1Cl	-4.5%
O=C1CC(c2c[nH]c3ccccc23)C(=O)N1c1ccccc1 (configuration not stated)	-1.4%
Cc1cccn2c(=O)nc(SCC(=O)NC3CCCCC3)nc12	0.1%
Fc1ccc(NC(=S)NC2CC3CCCC(C2)N3Cc2cccs2)cc1 (configuration not stated)	?
O=C(COC(=O)CCCNC(=O)c1ccc(Cl)cc1)NC1CC1	-3.4%

Entries shown so far that have a COOH group, in the order listed:
SMILES	VDR inh
O=C(O)C[C@H]1c2cc(F)ccc2S(=O)(=O)N1Cc1ccccc1	0.7%
CC1(C)CC(CC(=O)O)(c2ccc(F)cc2)CCO1 (configuration not stated)	1.1%

Another view of three compounds above:
SMILES | VDR inh
CN(C)c1ccc(C(=O)C(O)c2ccccc2)cc1 (configuration not stated) | -4.2%
NS(=O)(=O)c1cccc(NC(=O)CCc2ccc(S(=O)(=O)N3CCOCC3)cc2)c1 | 16.5%
CCN(CC)S(=O)(=O)c1cc([N+](=O)[O-])ccc1N=Nc1c(O)[nH]c2ccccc12 | -22.3%

4 entries from above in another layout:
Structure | VDR inh
COc1ccc(C(=O)COC(=O)COc2cc(C)cc(C)c2)cc1 | 8.7%
CCOc1ccc(C(=O)CCC(=O)NC(C)C(=O)OC)cc1 (configuration not stated) | -9.8%
O=C(NCCc1ccc(F)cc1)c1cccc2c1C(=O)c1ccc(N3CCC(Cc4ccccc4)CC3)cc1S2(=O)=O | -15.0%
O=C(Nc1cccc(S(=O)(=O)NC2=NCCC2)c1)c1cc(Cl)ccc1[N+](=O)[O-] | -20.8%

The listing continues.
SMILES	VDR inh
CCc1ccc(NC(=S)N2CCCC2)cc1	7.1%
Cc1ccc(N2CCN(/N=C/C3=C(N4CCOCC4)C(=C\c4ccccc4)/CC3)CC2)cc1	22.8%
C=CCn1c(SCC(=O)NCc2ccco2)nc2sc(C)c(C)c2c1=O	0.9%
CCc1nnc(NS(=O)(=O)c2ccc(NC(=O)c3cccc4ccccc34)cc2)s1	-0.2%
c1ccc(-c2ccccc2OCCCCN2CCCCC2)cc1	-2.0%
CCOC(=O)C(=CNc1ccc(S(N)(=O)=O)cc1)C(=O)OCC	5.2%
O=C(CSc1nnc(-c2cccc(S(=O)(=O)N3CCCCC3)c2)o1)NCCC1=CCCCC1	3.3%
COc1ccc(-c2c(-c3cc(OC)cc(OC)c3)n(C)c3ccc(-c4ccc5[nH]ccc5c4)cc23)cc1	-17.5%
CCCCCCC(=O)Nc1ccc(Br)cn1	10.5%
O=C1CC(N2CCC(c3nc4ccccc4[nH]3)CC2)C(=O)N1c1ccccc1F (configuration not stated)	-1.8%
COC(CNC(=O)c1ccc2c(c1)ncn2-c1ccc(C)cc1C)OC	-4.5%
CCn1c2ccccc2c2nnc(SCCCn3c(=O)[nH]c4ccccc43)nc21	0.8%
O=C(CCS(=O)(=O)c1ccc(Cl)cc1)Nc1nccs1	13.4%
COc1cc2c(C(=O)N3CCN(Cc4ccc5c(c4)OCO5)CC3)cn(C)c(=O)c2cc1OC	11.6%
O=S1(=O)CC/C(=N\Nc2ccc(F)cc2)c2ccsc21	25.1%
Cc1cccc(NC(=O)CSc2cn(CC(=O)N3CCCC3)c3ccccc23)c1C	0.1%

Assay outcomes: PubChem, National Center for Advancing Translational Sciences (NCATS)

An excerpt; the hit share may differ from the screen's.
